High-throughput results: PubChem BioAssay, several laboratories
UCH37 DUB inh = human UCH37 deubiquitinating enzyme inhibition; purified proteasome/UCH37, Ub-AMC cleavage fluorescence; inhibition, % (no concentration beside the values); 0.33% of 330,000 active;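 active = mean of two replicates above 20%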;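 note: 0% = compound-free wells with enzyme and 100% = wells lacking proteasome; stock transfer was 100 nL into about 20 µL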
Target sequence (Q9Y5K5 whole entry, looked up): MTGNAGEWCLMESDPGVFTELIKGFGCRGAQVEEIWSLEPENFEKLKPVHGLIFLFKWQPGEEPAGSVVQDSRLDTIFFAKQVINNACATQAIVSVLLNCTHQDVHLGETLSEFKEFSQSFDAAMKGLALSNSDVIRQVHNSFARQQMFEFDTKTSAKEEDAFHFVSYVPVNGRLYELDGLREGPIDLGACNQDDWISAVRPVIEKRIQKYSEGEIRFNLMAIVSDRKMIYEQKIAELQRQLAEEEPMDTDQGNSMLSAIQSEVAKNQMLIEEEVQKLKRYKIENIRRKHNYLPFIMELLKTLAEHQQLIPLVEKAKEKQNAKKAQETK
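System: Proteasome-associated human UCH37 deubiquitinase; Input: 0.15 nM proteasome in added enzyme buffer; Also added: Ub-AMC substrate from 1 µM stock; Incubation: 30 min compound-proteasome preincubation then 25 min substrate reaction, room temperature; Detection: fluorescence, ex 355 nm, em 460 nm; Read-out: % inhibition of Ub-AMC cleavage fluorescence; Benchmarks: no-proteasome and no-compound wells.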
HNF4A DNA FP = change in binding of human HNF4 alpha to DNA; AID 1224865; P41235; 0.3% of 360,000 active; activity change, % at 10 µM; HNF4a-FITC DNA binding, fluorescence polarization, 1 h; in the data active = activity change above about 30%, passing the limit was not always enough;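 note: controls were the assay level and a saturating level of protein; the project sought stronger binding though the title names inhibitors; some compounds called inactive have numbers as strong as hits; positive values seem to mean higher polarization but the record does not say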
RanGTP-Impb inh = inhibitors of RanGTP-importin-beta interaction, primary screen, biochemical, FRET, CFP-Ran, YFP-importin-beta, homogeneous | inhibition, % (concentration not given with the values) | cell-free CFP-Ran/YFP-importin-beta FRET ratio | 1.1% of 300,000 active;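 active = most replicates above 15%; inconclusive = exactly half above 15%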;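 note: 0% = DMSO wells and 100% = Ran loaded with GDP instead of GTP; wells of about 40 µL received 100 nL stock; the first replicate is given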
FGF22 binding = shifts melting point of recombinant human FGF22 | 1.5% of 340,000 active | recombinant FGF22 thermal shift, SYPRO orange fluorescence; percent of sucrose octasulfate shift, DMSO zero | Q9HCT0 | calls only at 9.99 µM;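 active = melting point raised past a set limit in the mean and every replicate; inconclusive = no clear call; three in four hits are not shown here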
Target sequence (Q9HCT0 whole entry, looked up): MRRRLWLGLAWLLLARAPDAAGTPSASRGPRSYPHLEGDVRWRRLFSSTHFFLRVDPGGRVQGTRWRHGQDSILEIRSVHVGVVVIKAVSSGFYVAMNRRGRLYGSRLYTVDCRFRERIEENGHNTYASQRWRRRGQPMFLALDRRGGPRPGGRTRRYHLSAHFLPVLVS
Ecoli growth = inhibitors of Escherichia coli growth. OD600, 23 h; active compounds read low. 0.21% of 330,000 active. OD600 absorbance (no concentration beside the values);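 active = OD600 absorbance below the run mean of sample wells minus 3.6 SD, in any replicate, cut at about 0.56 in these data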;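 note: stock transfer was 300 nL into about 60 µL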
MLL AF4-AF9 inh = inhibitors of human MLL-AF4/AF9 interaction | 0.47% of 350,000 active | AlphaScreen, biotin-AF4 peptide binding to FLAG-AF9 | inhibition, % at 10 µM;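 active = every replicate reaching a set inhibition limit, whatever the replicate mean, cut at about 25% in these data; inconclusive = mean inhibition reaches that limit but some replicates miss it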;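 note: 0% = plate neutral control median and 100% = total signal loss; the record names both 10 and 1 µM as test concentration; the first replicate is given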
Target sequence (P42568 whole entry, looked up): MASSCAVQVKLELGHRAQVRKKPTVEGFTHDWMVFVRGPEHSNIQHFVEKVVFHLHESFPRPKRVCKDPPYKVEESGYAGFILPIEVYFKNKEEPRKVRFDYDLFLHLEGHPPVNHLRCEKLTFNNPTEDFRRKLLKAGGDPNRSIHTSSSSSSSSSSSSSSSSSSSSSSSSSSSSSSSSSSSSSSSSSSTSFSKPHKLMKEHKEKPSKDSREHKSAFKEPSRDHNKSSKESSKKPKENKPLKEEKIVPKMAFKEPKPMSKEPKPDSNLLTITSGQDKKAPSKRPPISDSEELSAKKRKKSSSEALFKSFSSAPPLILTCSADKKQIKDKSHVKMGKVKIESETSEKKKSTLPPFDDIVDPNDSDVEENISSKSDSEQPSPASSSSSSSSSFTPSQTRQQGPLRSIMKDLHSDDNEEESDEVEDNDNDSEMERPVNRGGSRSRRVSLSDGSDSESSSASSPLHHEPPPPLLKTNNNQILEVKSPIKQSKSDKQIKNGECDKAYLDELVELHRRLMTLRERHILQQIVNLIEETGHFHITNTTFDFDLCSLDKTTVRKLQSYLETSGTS
Vif TR-FRET = inhibitors of Vif binding to APOBEC3G peptide, primary screen, biochemical, TR-FRET, GST-Vif 1-94, biotin-A3G peptide, dose response retest (AID 1117319). TR-FRET GST-Vif / biotin-A3G peptide binding; higher % means a stronger effect; test concentration not given here; strong numbers were not always called active. one-dose inhibition, %; IC50 in µM for titrated hits. 0.57% of 260,000 active;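 active = above the screen mean plus three standard deviations and confirmed in dose response; inconclusive = results disagree or hit not tested in dose response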;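 note: Vif residues 1-94 fused to GST binding biotinylated APOBEC3G peptide 110-148; 0% = full assay without inhibitor and 100% = GST in place of GST-Vif; retest series ran down from 100 µM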
An asterisk follows results filed as active; i = inactive; ? = inconclusive; / = no result given. These rows are one share of the data (hit frequency here may not be typical).

SMILES,UCH37 DUB inh,HNF4A DNA FP,RanGTP-Impb inh,FGF22 binding,Ecoli growth,MLL AF4-AF9 inh,Vif TR-FRET
Cc1ccc(CNC(=O)c2nn(C)c(C)c2[N+](=O)[O-])cc1,1.9,2.3,-0.4,i,0.645,-13.4,/
COc1ccc(NC(=O)Cc2c(F)cccc2Cl)cc1,1.2,-2.7,-0.8,i,0.65,-2.0,-1.5%
NC(=NCc1ccccc1)c1cccc([N+](=O)[O-])c1,1.6,3.3,-6.0,i,0.7,1.4,/
O=C(N=c1ccn(-c2nc3ccccc3nc2NS(=O)(=O)c2ccc(Cl)cc2)cc1)c1ccccc1Cl,4.1,/,-48.1,/,0.689,/,-106.3%
CCOC(=O)c1csc(NNC=O)n1,3.4,0.1,0.5,/,0.681,/,/
O=C(OCc1ccccc1)N1CCC2CC1c1cc(/C=C/CCCSc3ncccn3)ccc12 (centres undefined),/,1.0,/,i,/,1.4,-1.9%
COC(=O)COc1coc(CN2CCN(c3cccc(Cl)c3)CC2)cc1=O,4.1,-1.0,0.5,i,0.67,-1.6,/
Cc1cnc(NC(=O)NCC2CCCC(CNC(=O)Nc3ncc(C)s3)C2)s1 (centres undefined),6.5,-0.2,1.9,i,0.685,5.4,/
O=C(Nc1c2c(nn1-c1ccccc1)CS(=O)(=O)C2)c1ccccc1C(F)(F)F,1.9,5.5,-1.5,i,0.682,-4.6,/
COc1ccc(Cl)cc1C1=CC(=O)C[C@H](c2ccc(F)cc2)C1,2.0,-1.4,/,i,/,3.8,/
CCOC(=O)C1(Cc2ccccc2)CCCN(C(=O)C=C(C)C)C1 (centres undefined),-0.1,2.8,-4.6,i,0.723,-4.4,-3.8%
O=C(OCc1ccc([N+](=O)[O-])cc1)C1CC(=O)N(c2ccccc2)C1 (centres undefined),0.8,4.2,-2.8,i,0.681,0.5,6.8%
O=C(c1ccc(F)cc1)N1CCCCC(Sc2nnnn2-c2ccccc2)C1=O (centres undefined),0.5,2.2,-2.0,/,0.699,/,7.3%
CC(=O)N1CCN(c2ccc([N+](=O)[O-])c(NCC3CCCO3)c2)CC1 (centres undefined),0.0,2.4,-1.8,/,0.685,/,2.4%
CC(C)Oc1ccc(C(=O)OCC(=O)NC(=O)NC2CCCC2)cc1,1.5,2.1,/,i,0.686,1.8,/
COc1ccc(Cc2nnc(NC(=O)Nc3ccc(F)cc3)s2)cc1,-0.8,6.6,-2.7,i,0.647,-1.1,-0.5%
O=C(CN1CCN(c2ccccc2)CC1)Nc1ccccc1Cl,0.9,3.8,3.4,i,0.686,-2.6,/
Cn1c(=O)c2c(ncn2CC(=O)NCc2cccnc2)n(C)c1=O,2.1,0.5,0.2,/,0.658,/,-4.9%
Cn1c(=O)[nH]c(=O)c2c1[nH]c(=S)n2Cc1ccc(Cl)cc1,0.8,-0.5,0.8,i,0.668,-7.8,-4.3%
O=C(CN1CCN(c2ncccn2)CC1)N1CCc2ccccc21,4.8,1.5,4.4,i,0.678,-8.1,12.0%
O=C(COC(=O)/C=C/c1cccc(Br)c1)NC1CCCC1,3.0,-0.6,/,i,0.684,-3.8,-1.2%
CC(C)C(=O)Nc1c2c(nn1-c1ccc(F)cc1)CSC2,2.0,-0.7,0.8,i,0.732,0.3,3.4%
S=C(Nc1ccccc1Cl)N1CCCCC1,-0.4,0.0,6.3,/,0.705,-0.7,0.2%
CCc1nc2ccc(C(=O)N3CCN(C(C)=O)CC3)cn2c1N(C=O)Cc1ccc(OC)cc1,/,1.5,/,i,/,-6.5,/
Cc1csc(SCC(=O)NC(=O)Cc2ccccc2)n1,1.9,1.2,5.0,/,0.649,/,/
Cc1ccc2ccc(C(Nc3cccc(C(F)(F)F)c3)c3cccnc3)c(O)c2n1 (centres undefined),3.1,-5.1,0.1,i,0.689,33.1*,-6.1%
O=C1CCOc2cc(OCc3ccccc3)ccc21,0.6,-2.9,2.0,/,0.704,/,26.0%
Cc1cc(CN(C)C)c(O)c(C2(C)CCCCC2)c1,1.5,0.8,0.5,/,0.699,/,-7.7%
C=CCOc1ccc(C2NC(=O)c3ccccc3O2)cc1OC (centres undefined),/,1.8,/,i,/,-2.2,/
S=C(Nc1ccc(Cl)cc1Cl)N1CCCCC1,2.7,-0.7,-1.6,/,0.676,/,-1.5%
O=C(Cc1ccc(Br)c2ccccc12)N/N=C/c1ccccn1,/,-2.4,5.7,i,/,6.9,-3.2%
O=[N+]([O-])c1ccc(Cl)c2c1C1C=CCC1C(c1ccccn1)N2 (centres undefined),6.2,-5.1,1.8,i,0.71,18.6,-2.5%
CCCCn1c(=O)[nH]c(=O)c2c1nc(CN(C)Cc1cccc(OC)c1OC)n2CCC,5.0,4.0,-3.0,i,0.663,-0.2,2.6%
O=C(Nc1ccc(F)cc1)c1cc2ccccc2o1,-1.0,-1.4,3.2,i,0.71,-3.7,0.5%
CCOc1ccc(Br)cc1S(=O)(=O)Nc1ccc(NC(=O)c2ccccc2C)cc1,0.0,8.3,-4.3,i,0.709,0.0,/
C=CCNC(=S)Nc1cccc(N)c1,-0.7,-1.4,3.7,i,0.642,1.9,-10.8%
Cc1cccc(C)c1NC(=O)c1ccc([N+](=O)[O-])s1,8.1,-0.2,2.7,/,0.689,/,/
COc1ccc2sc(-c3ccc(N(C)C)cc3)c(C#CCO)c2c1,-348.3,-2.4,/,i,0.715,-16.7,/
Cc1oc2c(C)c3oc(=O)c(CCC(=O)NCCN4CCOCC4)c(C)c3cc2c1C,-19.8,0.5,-10.2,i,0.774,2.0,/
CCCCNC(=O)CCc1nc2cccnc2n1Cc1ccccc1,4.3,1.8,4.1,i,0.65,-0.2,-2.9%
Cc1cccc(NC(=O)/C(C#N)=C\c2cn(CC(=O)O)c3ccccc23)c1,4.4,1.4,?,i,0.658,-1.6,1.8%
Cc1ccc(SCC(=O)OC(C)C(=O)NC2CCCCC2C)c(C)c1 (centres undefined),0.9,1.9,/,i,0.678,-3.6,0.8%
CN(C)C(=O)Cn1cnc2c(cnn2-c2ccccc2Cl)c1=O,-0.5,-0.5,0.2,i,0.611,-31.3,13.7%
C#Cc1ccc([C@@H]2C=C(C(=O)Nc3ccccc3)O[C@H](OCC)[C@H]2CCCO)cc1,/,-0.3,-1.6,i,/,2.5,/
CCOC(=O)c1c(-c2cccc([N+](=O)[O-])c2)csc1NC(=O)CCCOc1ccccc1,7.0,1.2,?,/,0.714,/,1.4%
O=C(Cc1ccc(Cl)cc1)c1ccccc1,0.2,3.7,/,i,0.702,-3.5,3.0%
CN(C(=O)COC(=O)c1nn(C)c(=O)c2ccccc12)c1c(N)n(Cc2ccccc2)c(=O)[nH]c1=O,1.2,1.2,1.4,i,0.668,0.5,-9.7%
O=C(NC(=S)Nc1ccc(Cl)cn1)C12CC3CC(CC(C3)C1)C2,5.8,-0.1,1.1,i,0.71,0.6,?
CCOC(Cn1cc(C)c(=O)[nH]c1=O)OCC,-1.1,-0.3,4.1,i,0.665,2.1,6.4%
FC(F)(F)COc1nc(N2CCOCC2)nc(N(c2ccccc2)c2ccccc2)n1,0.3,-1.2,-1.3,/,0.674,/,-4.8%
COc1cc(CN(C)CCc2ccccc2)ccc1OCc1ccccc1,3.7,0.5,0.3,/,0.614,/,-3.1%
CC1(C)CC(=O)C=C(Nc2cccc(Cl)c2Cl)C1,3.0,2.6,1.9,i,0.582,-8.8,/
O=C(CSc1nc2ccccc2c(=O)[nH]1)N1CCCCC1,6.0,2.2,-4.2,i,0.703,-5.9,3.9%
CCOC(=O)Cc1nc(-c2cccc(C(F)(F)F)c2)no1,4.1,3.1,0.4,i,0.672,-0.8,/
CC1(C(=O)NS(=O)(=O)C2CC2)CCN(C(=O)c2ccccc2OC(F)(F)F)C1 (centres undefined),/,-4.9,/,i,/,-3.2,/
CCCc1nc(SCC(=O)Nc2ccc(N3CCOCC3)cc2)c2ccccc2n1,/,0.7,5.8,/,/,/,12.1%
CC(NC(=O)C1CCCO1)c1ccccc1 (centres undefined),5.4,-1.0,-4.5,/,0.712,/,-2.1%
CCn1c(O)c(N=NC(=O)CNC(=O)/C=C/c2ccco2)c2ccccc21,12.4,0.5,3.5,i,0.699,-2.0,?
CC1CCN(c2ccc(C=O)o2)CC1,/,0.3,5.3,i,/,-3.3,-10.8%
Cc1ccsc1C(=O)N1CCC1(C)C(=O)NS(=O)(=O)c1ccc(C#N)cc1 (centres undefined),/,5.5,/,i,/,-0.4,/

New compounds follow:
SMILES,UCH37 DUB inh,HNF4A DNA FP,RanGTP-Impb inh,FGF22 binding,Ecoli growth,MLL AF4-AF9 inh,Vif TR-FRET
COc1ccc(NC(=O)C(NC(C)=O)C(=O)NCc2ccccc2)cc1 (centres undefined),6.2,-2.3,-1.2,/,0.829,/,2.8%
CCOc1ccc(NC(=O)c2ccc(N)cc2)cc1,3.5,5.2,1.2,i,0.733,0.6,12.9%
CCOC(=O)[C@H]1[C@H]2COc3ccc(Br)cc3[C@H]2N2C(=O)CN(CCc3c[nH]c4ccccc34)C(=O)[C@@]12C,/,1.0,/,i,/,-0.6,/
CCOC(=O)N1CCN(C(=O)c2cc3n(n2)C(C(F)(F)F)CC(c2ccc4c(c2)OCO4)N3)CC1 (centres undefined),1.4,13.5,4.2,i,0.682,-0.1,6.7%
Cn1ncc(Cl)c1C(=O)Nc1cccc(Cl)c1,3.7,-0.5,-1.1,/,0.719,/,1.1%
C=CCOc1c(Br)cc(/C=C2\SC(=Nc3ccccc3)NC2=O)cc1OC,-1.7,2.5,-1.2,i,0.752,3.1,/
CCOc1ccc(C(=O)Nc2cccc(-c3ccc(N4CCOCC4)nn3)c2)cc1OCC,-1.7,3.3,3.8,i,0.646,-5.8,-8.8%
COc1cc(/C=C/CO)cc(OC)c1O[C@@H]1O[C@H](CO)[C@@H](O)[C@H](O)[C@H]1O,-0.2,0.3,-0.3,i,/,1.0,13.9%
CN1CCN(c2ccc(NC(=S)NC(=O)c3cccc4c(Cl)cccc34)cc2)CC1,3.4,-0.2,0.5,i,0.602,-4.2,/
Nc1nc(N)nc(-c2cc(O)ccc2O)n1,4.8,0.4,/,i,/,-9.3,/
CN(C(=O)Cc1c(C(=O)O)n(C)c2ccccc12)c1ccc(Cl)cc1,1.7,-1.4,4.5,i,0.646,-1.1,-0.7%
Cc1ccc(NC(=O)C2CCN(S(=O)(=O)c3cccc4cccnc34)CC2)nc1,0.8,3.3,5.0,i,0.741,1.1,2.1%
COc1cccc(OC)c1C(=O)N1CCN(Cc2ccccc2C(F)(F)F)CC1,5.6,1.6,2.8,/,0.731,/,?
CC(C)CCN1CCC(N)=NC1=O,2.0,3.6,/,i,0.725,-2.3,-11.3%
CCN(CC(=O)Nc1c(F)cccc1F)C(=O)CSCC(=O)Nc1cccc(C)c1,5.4,-3.1,4.3,i,0.681,-4.8,-6.2%
CCc1ccccc1NC(=O)CSc1nc2c(c(-c3ccco3)c1C#N)CCCC2,-11.6,0.7,?,/,0.745,/,?
Cc1ccc(NS(=O)(=O)c2cc([N+](=O)[O-])ccc2N/N=C/c2sc(N3CCOCC3)nc2-c2ccccc2)c(C)c1,/,20.6,5.2,/,/,4.3,-0.7%
CCOC(=O)N1CCN(C(=O)CSC2=NS(=O)(=O)c3cc(Cl)ccc3N2)CC1,1.6,1.9,0.1,i,0.633,0.8,2.0%
